# Assay outcomes (PubChem)
# GIRK2 act = GIRK2 channel activation; HEK293-GIRK2 thallium flux, Thallos fluorescence; 63,000 compounds, 0.05% hits; calls only for hits at 25 µM;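 active = among the strongest 0.2% of first-round signals and kept after retests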;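 note: first round at about 10 µM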
# Target sequence (P48051 whole entry, looked up): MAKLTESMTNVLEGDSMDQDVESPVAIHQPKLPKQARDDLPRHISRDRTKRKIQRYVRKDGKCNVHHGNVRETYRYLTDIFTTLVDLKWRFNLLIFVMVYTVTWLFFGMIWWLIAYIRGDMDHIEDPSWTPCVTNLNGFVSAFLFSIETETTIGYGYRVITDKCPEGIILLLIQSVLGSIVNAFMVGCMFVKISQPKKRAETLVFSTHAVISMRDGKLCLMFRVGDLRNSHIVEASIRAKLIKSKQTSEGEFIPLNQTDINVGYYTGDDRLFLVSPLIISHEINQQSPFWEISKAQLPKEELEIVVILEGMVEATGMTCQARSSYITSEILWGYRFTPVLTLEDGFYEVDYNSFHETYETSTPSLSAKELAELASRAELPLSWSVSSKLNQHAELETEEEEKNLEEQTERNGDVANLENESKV
# Calls only; i = inactive. A portion of the library, so the mix of outcomes need not match the whole.
SMILES,GIRK2 act
Cc1cccc(-n2c(C)c(C)n3c4c(=O)n(CCN5CCOCC5)c(=O)n(C)c4nc23)c1,i
O=C(COc1ccc2c(c1)C(=O)CC2)NCCc1cnc[nH]1,i
Cc1ccc(NC(=O)Nc2ccc3c(c2)N(S(=O)(=O)c2ccc(F)cc2)CCC3)cc1,i
Cc1cc(C(=O)Nc2ccc3c(c2)CCCN3C(=O)c2cccs2)no1,i
C[C@H]1CC[C@@]2(OC1)O[C@H]1CC3C4CC[C@H]5C[C@@H](O)CC[C@]5(C)C4=CC(=O)[C@]3(C)[C@H]1[C@@H]2C (some centres undefined),i
CCCCCCCCCCCCCCCCSC[C@H](COP(=O)([O-])OCC[N+](C)(C)C)NC(=O)CCCCCCCCCCCCCCC,i
COC(=O)C(Cc1ccc(O)cc1)NC(=O)C12CC3CC(C1)CC(c1ccccc1)(C3)C2 (centres undefined),i
O=C(CN1CCN(c2ccc(F)c(F)c2)C1=O)NC(c1ccccc1)c1ccccc1,i
COc1cccc(Oc2nccn3c(=O)n(CC(=O)Nc4ccccc4OC)nc23)c1,i
COc1ccc(C)cc1-n1c(-c2ccccc2)cn2c3c(=O)n(CC(C)=O)c(=O)n(C)c3nc12,i
O=C(NCCN1CCN(C(=O)Nc2ccc(F)cc2)CC1)c1cccs1,i
O=C(Cn1nc(-c2ccco2)c2sc(N3CCCC3)nc2c1=O)N1CCCc2ccccc21,i
O=C(NCCC(O)C1CC1)NCc1ccc(Cl)cc1 (centres undefined),i
CCOCC(=O)N1CCC(Oc2ccccn2)CC1,i
CCOc1ccc(-n2c(=S)sc3c(=O)[nH]c(SCC(=O)Nc4ccc(CC)cc4)nc32)cc1,i
O=C(NC1CCN(c2ccc(-c3ccccc3F)nn2)C1)C1CCC1 (centres undefined),i
Cc1cc(NC(=O)Cn2nc3c4cccc(C)c4ncn3c2=O)ccc1Br,i
Cn1cnc([N+](=O)[O-])c1Sc1nc2c(c(=O)n(Cc3ccc(Cl)cc3)c(=O)n2C)n1C,i
O=S(=O)(c1cc(Cl)ccc1Cl)N1CCC2(CC1)OCCCO2,i
Cn1nc(-c2cccs2)cc1C(=O)N1CCN(c2cccc(C(F)(F)F)c2)CC1,i
COc1ccc(CC(C)(O)CNC(=O)C(=O)Nc2ccon2)cc1 (centres undefined),i
O=C(Nc1ccc(Br)cc1)c1ccc(-n2cnnn2)cc1,i
COC(=O)c1ccccc1NC(=O)Cn1ccn2nc(-c3ccc(OC)c(OC)c3)cc2c1=O,i
O=[N+]([O-])c1ccc(-c2nc3nc4ccccc4nc3n2CC2CCCO2)cc1 (centres undefined),i
O=C(c1cc2ccccc2o1)N1CCN(Cc2nnnn2-c2ccc(F)cc2)CC1,i
Cc1ccc2c(c1)C(=O)NC1(CCN(C(=O)c3ccc4c(c3)OCO4)CC1)N2C,i
COc1ccc(Br)c(C(=O)N2CC(c3nc(-c4ncccn4)no3)C2)c1,i
O=C(Nc1ccccc1)N1CCN(c2ccc(-c3noc(C4CC4)n3)cn2)CC1,i
CC1(C)OCC2(CO1)CN(C(=O)c1ccc3ncsc3c1)C2,i
O=c1c2sccc2nc(SCc2nc(-c3ccccc3Br)no2)n1C1CC1,i
CCNC(=O)c1nc(C(=O)NCc2ccc(OC)cc2)cs1,i
Cc1noc(C)c1CCC(=O)N1CCCC(c2nnc(-c3ccccc3F)s2)C1 (centres undefined),i
O=C(Nc1nnc(C2CC(=O)N(c3ccccc3)C2)o1)c1cc(Cl)sc1Cl (centres undefined),i
O=C(NCCc1c[nH]c2ccccc12)C1(c2cccs2)CCCC1,i
Cc1ccc(C)c(S(=O)(=O)N2CCCCC2CCNC(=O)C(=O)NC2CCCCCC2)c1 (centres undefined),i
COc1cccc(NC(=O)Nc2ccc3c(c2)CCCN3C(=O)c2cccs2)c1,i
Nc1onc2c1CSC2,i
CC(C)S(=O)(=O)c1ccc(CC(=O)N2CCOCC2CO)cc1 (centres undefined),i
Cc1cc(N2CCN(CCO)CC2)n2nc(C(F)(F)F)c(-c3ccc(Cl)cc3)c2n1,i
CCc1cc(=O)n(CCNC(=O)c2ccc(Cl)c(Cl)c2)cn1,i
O=C(CSC1CCCC1)N1CCC(COCc2ccccc2)CC1,i
O=C(COC(=O)c1ccc(O)cc1O)c1ccc(Cl)c(Cl)c1,i
O=C(CSc1nc2ccccc2s1)N1CCCSCC1CN1CCCC1 (centres undefined),i
CCc1ccc(S(=O)(=O)Nc2ccc3c(c2)CCCN3C(=O)c2ccccc2)cc1,i
Cc1ccc(S(=O)(=O)c2cn(Cc3ccccc3Cl)c3ccc(F)cc3c2=O)cc1,i
O=C(CSc1nnc(CCc2nc3ccccc3[nH]2)o1)Nc1ccc(F)c(Cl)c1,i
Cc1ccc(Nc2cc(C)nc(Nc3ccc(NC(=O)c4ccc5c(c4)OCO5)cc3)n2)cc1,i
CC(C)N1CCC(CNC(=O)NC2CC2)CC1,i
COc1cccc(CNC(=O)C(=O)NCCC2CCCCN2S(=O)(=O)c2ccc(F)c(C)c2)c1 (centres undefined),i
Cc1c(C)n2c3c(=O)n(Cc4ccccc4F)c(=O)n(C)c3nc2n1CC(C)C,i
# Following part:
SMILES,GIRK2 act
O=S(=O)(Cc1cccc(F)c1)N1CCC(CSCc2ccco2)CC1,i
Cc1noc(C2(NC(=O)c3ccc(C(F)(F)F)cc3)CCCCC2)n1,i
Cc1cccn2c(=O)c3cc(C(=O)NCCc4ccccc4)n(Cc4ccccc4)c3nc12,i
Cc1cccc(S(=O)(=O)NCCC(=O)O)c1,i
O=C(CCCSc1ccc(Cl)cc1)Nc1ncnc2sccc12,i
O=C(c1ccccc1Br)N1CCCC(c2nnc(C(F)(F)F)o2)C1 (centres undefined),i
COc1ccc2nc(-c3ccc(Cl)c(NC(=O)C4CCCCC4)c3)cn2n1,i
COc1ccc(-c2noc(-c3nn(-c4cccc(Br)c4)ccc3=O)n2)cc1OC,i
Cc1ccccc1C(=O)N1CCN(c2oc(-c3cccs3)nc2C#N)CC1,i
O=C(NCc1ccccc1Cl)C(=O)Nc1ccc(N2CCCS2(=O)=O)cc1,i
COCC(C)NC(=O)CCC1NC(=O)c2ccccc2NC1=O (centres undefined),i
Cc1ccc(-n2ncc3c(=O)n(Cc4nc(-c5ccc(Cl)cc5)no4)cnc32)cc1,i
COc1ccc(NC(=O)CSc2nccn(-c3ccc(Cl)cc3)c2=O)cc1,i
CCN1CC(c2nc3ccccc3n2Cc2ccc(Cl)c(Cl)c2)CC1=O (centres undefined),i
COCCn1c(N2CCN(Cc3ccc(F)cc3)CC2)nc2c1c(=O)[nH]c(=O)n2C,i
CCOc1ccc(N2CCN(CC(=O)N3CCN(c4ncccn4)CC3)C2=O)cc1,i
COc1ccc(NC(=O)Cn2cccc(-c3nc(-c4ccccc4)no3)c2=O)cc1Cl,i
COc1cc(OC)c(NC(=O)COc2cc(C)nc(N3CCCCC3)n2)cc1Cl,i
Cn1nnn(-c2ccc(NC(=O)C3(c4ccc(Cl)cc4)CCCC3)cc2)c1=O,i
O=C(C1CCCCC1)N1CCN(Cc2nnnn2-c2ccccc2)CC1,i
O=C(c1cccc(Br)c1)N1CC(c2nc(-c3cccs3)no2)C1,i
COc1ccc(OCc2noc(CNC(=O)C3(c4cccs4)CCCC3)n2)cc1,i
COc1ccc(CCC(=O)N2CCN(c3nc4c(C(F)(F)F)cccc4s3)CC2)cc1,i
O=C(Cc1c[nH]c2ccccc12)N1CCC(Oc2ccc(C(F)(F)F)cn2)CC1,i
C=CCNC(=O)CN1CCC(Cn2cnc3cc(C)c(C)cc32)CC1,i
CCOC(=O)C1CCCN(C(=O)C2CCN(c3cc(Oc4ccc(CC)cc4)ncn3)CC2)C1 (centres undefined),i
CC1CCCN(c2ncc(C(=O)NCc3ccccc3)c(N)n2)C1 (centres undefined),i
Cc1ccc(-c2ccc(C(N)=O)o2)cc1,i
COc1ccccc1N1CC(C)Cn2c1nc1c2c(=O)n(CC(N)=O)c(=O)n1C (centres undefined),i
O=C(C1CCN(Cc2nc3ccccc3[nH]2)CC1)N1CCc2ccccc2C1,i
O=C(c1c(F)cccc1Cl)N1CCC(Oc2ccccn2)CC1,i
Cc1cc(C(=O)Nc2nc(C(=O)NCCn3nc(-c4ccco4)ccc3=O)co2)no1,i
CCCCN(CCCC)S(=O)(=O)CCNC(=O)c1ccc(F)cc1,i
CCCC(=O)N1CCN(c2ccc(-c3noc(C(F)(F)F)n3)cn2)CC1,i
COc1ccccc1NC(=O)/C(C#N)=C1\SC(Cc2ccccc2Cl)C(=O)N1c1ccccc1 (centres undefined),i
COc1ccc(/C=C2\Oc3cc(OS(=O)(=O)c4ccccc4)ccc3C2=O)cc1OC,i
O=C(Nc1cccs1)N1CCC(Cn2cnc3ccccc32)CC1,i
O=S1CCN(Cc2ccc(-c3ccc4ncnc(Nc5ccc(OCc6ccccc6)c(F)c5)c4c3)o2)CC1,i
CCc1ccc(CNC(=O)c2nc(-c3cn(-c4ccc(F)cc4)nn3)no2)cc1,i
O=C(NCCc1ccc(Cl)cc1)C1CCCN(c2nc3c(-c4ccccc4)csc3c(=O)[nH]2)C1 (centres undefined),i
CCNC(=O)N1CCN(CC(=O)c2cccs2)CC1,i
Cc1cccc(C)c1OCCOCC(O)CN1CCN(c2ccccc2F)CC1 (centres undefined),i
Cc1cccc(S(=O)(=O)N2CCCC2)c1,i
COc1cccc(Oc2c(C)oc3cc(OC(=O)N4CCOCC4)ccc3c2=O)c1,i
Cc1ccc2c(c1)C=C(C(=O)NC1CCCCC1)C=CO2,i
COc1ccc(-c2csc(NC(=O)c3cc(-c4ccco4)on3)n2)cc1OC,i
Cc1cc(NC(=O)C2CCN(C(=O)NCc3ccc(F)cc3)CC2)no1,i
COc1cc(C)ccc1S(=O)(=O)Nc1ccc(-c2csc3nc(C)cc(=O)n23)cc1,i
CCn1c(SCC(=O)c2ccc(Cl)cc2)nc2c1c(=O)[nH]c(=O)n2C,i
Cc1c(Cl)cccc1S(=O)(=O)N1CCCSCC1CN(C)C (centres undefined),i

# Reformatted with bars between the fields: entries from further up
molecule | GIRK2 act
O=C(CCCSc1ccc(Cl)cc1)Nc1ncnc2sccc12 | i
O=C(c1ccccc1Br)N1CCCC(c2nnc(C(F)(F)F)o2)C1 (centres undefined) | i
COc1ccc2nc(-c3ccc(Cl)c(NC(=O)C4CCCCC4)c3)cn2n1 | i
COc1ccc(-c2noc(-c3nn(-c4cccc(Br)c4)ccc3=O)n2)cc1OC | i
Cc1ccccc1C(=O)N1CCN(c2oc(-c3cccs3)nc2C#N)CC1 | i
O=C(NCc1ccccc1Cl)C(=O)Nc1ccc(N2CCCS2(=O)=O)cc1 | i
COCC(C)NC(=O)CCC1NC(=O)c2ccccc2NC1=O (centres undefined) | i
Cc1ccc(-n2ncc3c(=O)n(Cc4nc(-c5ccc(Cl)cc5)no4)cnc32)cc1 | i
COc1ccc(NC(=O)CSc2nccn(-c3ccc(Cl)cc3)c2=O)cc1 | i
CCN1CC(c2nc3ccccc3n2Cc2ccc(Cl)c(Cl)c2)CC1=O (centres undefined) | i
COCCn1c(N2CCN(Cc3ccc(F)cc3)CC2)nc2c1c(=O)[nH]c(=O)n2C | i
CCOc1ccc(N2CCN(CC(=O)N3CCN(c4ncccn4)CC3)C2=O)cc1 | i
COc1ccc(NC(=O)Cn2cccc(-c3nc(-c4ccccc4)no3)c2=O)cc1Cl | i
COc1cc(OC)c(NC(=O)COc2cc(C)nc(N3CCCCC3)n2)cc1Cl | i
Cn1nnn(-c2ccc(NC(=O)C3(c4ccc(Cl)cc4)CCCC3)cc2)c1=O | i

# Next part:
SMILES,GIRK2 act
N#Cc1c(NC(=O)CNS(=O)(=O)c2cccc(Cl)c2)sc2c1CCCC2,i
O=C(NCC(Cc1cccc(F)c1)n1cccc1)c1ccc[nH]c1=O (centres undefined),i
COc1ccc(CNC(=O)C(=O)NCC2OCCCN2S(=O)(=O)c2ccc(C)cc2)cc1 (centres undefined),i
CCN1CCN(C(=O)c2cc3c(=O)n4cccc(C)c4nc3n2Cc2ccccc2)CC1,i
O=C(Nc1ccc(N2CCCC2=O)cc1)c1ccccc1C(F)(F)F,i
Cc1ccccc1N1CCCn2c1nc1c2c(=O)n(CC(=O)OCc2ccccc2)c(=O)n1C,i
COc1coc(C(=O)N2CCCCCC2)cc1=O,i
COc1cccc(COc2coc(C(=O)N3CCN(Cc4ccccc4)CC3)cc2=O)c1,i
Cn1cc(OCc2ccc(F)cc2)c(=O)cc1C(=O)NCCc1c[nH]c2ccccc12,i
O=c1cc(CN2CCN(c3cccc(Cl)c3)CC2)c2cc(Cl)ccc2o1,i
CN(CC(=O)Nc1ccc(S(=O)(=O)Nc2ncccn2)cc1)c1nc2c(Cl)cccc2s1,i
Cc1cc(O)c2c(c1)O[C@]1(C)C(=O)[C@@H]3[C@H](C(=O)C1=C2O)[C@@H]1C[C@@]3(O)[C@]2(C)Oc3cc(C)cc(O)c3C(O)=C2C1=O,i
O=C(NCCCn1ncccc1=O)C1COCC(=O)N1Cc1ccccc1 (centres undefined),i
COc1cccc(S(=O)(=O)N2CCCC2C(=O)O)c1 (centres undefined),i
CCCN1CCCc2cc(CCNC(=O)C(=O)Nc3ccc(CC)cc3)ccc21,i
COc1ccc2oc(C(=O)Nc3ccc(NC(C)=O)cc3)cc(=O)c2c1,i
COc1cccc(-c2nc(Cn3nnc(C(=O)Nc4ccccc4C)c3N)c(C)o2)c1OC,i
Cn1c(=O)n(CCN2CCOCC2)c(=O)c2c1nc1n2CCN1Cc1ccco1,i
Cc1cc(C(=O)NCCn2cnc(-c3ccccc3)cc2=O)c(C)o1,i
CCNC(=O)C1Cc2ccccc2N1C(=O)c1ccc(S(=O)(=O)N(CC)CC)cc1 (centres undefined),i
CCCCCCNc1nc2c(c(=O)[nH]c(=O)n2C)n1CC(O)COc1ccc(C)c(C)c1 (centres undefined),i
O=C(COc1ccc(-n2cccn2)nn1)NCCc1ccccc1,i
COc1ccccc1-c1cc2nc(C)cc(=O)n2[nH]1,i
N=C(N)SCCN,i
CCN1CC(c2nc3ccccc3n2Cc2ccc(Cl)cc2Cl)CC1=O (centres undefined),i
